High-throughput results (PubChem BioAssay)
HSV replic up: increases HSV replication in cells; HSV replication augmentation in cells, fold increase; maximum fold increase; hit rate 0.005% among 220,000; AID 1956;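 active = peak rise of 1.5-fold or more in the series; inconclusive = self-fluorescent or not available for retest; tested in PC3 cells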;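 also: first round at 10 µM; read as green reporter fluorescence; hits show the peak of a series up to 25 µM; 1 = signal of infected wells without compound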
RGS16-Gao HTS: modulates binding between human RGS16 and Galphao | O15492+P09471 | bead-based flow cytometry RGS16-Galphao binding, fluorescence; actives lie on both sides | binding response (% of control), % at 10 µM | hit rate 0.38% among 220,000 | AID 1441;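 active = below 25% or above 175%, edge rows of some plates excepted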;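 also: Galphao activated by GDP with aluminum fluoride before binding; 100% = wells without compound and 0% = beads without RGS; some results beyond the cut were filed as inactive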
GALR2 ag: activates the human galanin receptor 2; GALR2-expressing cells, agonist activation read-out; O43603; hit rate 0.48% among 140,000; activation, %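 (tested at 5 µM)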;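 active = above mean plus 3 SD of all compounds, about 5% in these data, not always enough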;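 also: 0% = vehicle buffer wells and 100% = reference agonist at full effect; tested in CHO reporter cells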
Insulin prom inh: TRM-6 insulin promoter activity inhibition; inhibition, % at 2 µM; TRM-6 cells (human fetal islet line), insulin promoter-eGFP reporter, imaging; reporter expression induced with tamoxifen; hit rate 0.9% among 130,000;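 active = inhibition above the mean plus 3 SD, with well images judged a real hit on visual review, cut at about 60% in these data, passing the limit was not always enough; inconclusive = inhibition over the cutoff but images rejected on review; inactive = inhibition not above the cutoff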
PKD1 inh: inhibitors of human PKD1 kinase. Q15139. PKD1 kinase fluorescence polarization assay. inhibition, %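 (about 10 µM by stock and volumes)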. hit rate 0.056% among 200,000;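 active = inhibition of 50% or more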;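 also: controls were vehicle for no effect and a reference inhibitor for full effect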
Target sequence (Q15139 whole entry, looked up): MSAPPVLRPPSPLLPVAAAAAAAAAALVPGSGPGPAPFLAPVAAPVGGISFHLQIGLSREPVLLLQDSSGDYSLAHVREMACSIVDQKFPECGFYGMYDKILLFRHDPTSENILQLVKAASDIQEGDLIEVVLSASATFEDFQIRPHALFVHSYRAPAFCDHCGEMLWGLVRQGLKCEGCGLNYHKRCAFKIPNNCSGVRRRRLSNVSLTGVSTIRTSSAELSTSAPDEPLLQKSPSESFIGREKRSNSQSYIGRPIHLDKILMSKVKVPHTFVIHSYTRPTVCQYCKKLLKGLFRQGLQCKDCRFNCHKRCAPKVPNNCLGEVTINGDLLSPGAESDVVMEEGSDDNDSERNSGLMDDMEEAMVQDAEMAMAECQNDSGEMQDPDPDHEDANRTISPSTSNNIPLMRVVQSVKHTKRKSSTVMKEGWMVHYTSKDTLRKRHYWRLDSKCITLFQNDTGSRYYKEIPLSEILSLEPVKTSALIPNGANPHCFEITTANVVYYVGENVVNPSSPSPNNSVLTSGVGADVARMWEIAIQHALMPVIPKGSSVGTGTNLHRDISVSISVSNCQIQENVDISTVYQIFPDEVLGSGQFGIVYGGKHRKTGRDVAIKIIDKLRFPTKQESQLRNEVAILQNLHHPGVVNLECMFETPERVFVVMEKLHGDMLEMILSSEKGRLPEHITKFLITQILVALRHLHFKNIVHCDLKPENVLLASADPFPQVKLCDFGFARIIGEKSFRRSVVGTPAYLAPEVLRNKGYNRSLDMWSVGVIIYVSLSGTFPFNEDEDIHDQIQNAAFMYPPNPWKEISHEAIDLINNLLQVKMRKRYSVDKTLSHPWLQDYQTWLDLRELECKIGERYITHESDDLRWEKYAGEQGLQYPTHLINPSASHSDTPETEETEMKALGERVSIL
Insulin prom inh cell count: also measured in Insulin prom inh; calls as there; normalized cell count, %; measured here: cell count, toxicity; reference of the scale not given here;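 cells exposed to compound for 48 h; stained nuclei by imaging scaled within each plate; lower means fewer cells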
HSV replic up primary fold: recorded beside HSV replic up, whose call it bears; fold increase; compound at 10 µM; measured here: primary screen fold increase 10 uM; tested in PC3 cells;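 GFP signal in the first replicate; 1 = infected wells without compound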
* = called active by the depositor; i = inactive; u = inconclusive; x = not tested or not shown.

Keys – A = HSV replic up; B = HSV replic up primary fold; C = RGS16-Gao HTS; D = GALR2 ag; E = Insulin prom inh; F = Insulin prom inh cell count; G = PKD1 inh
1. O=C(O)c1ccc(/C=N/Nc2ccc(F)cc2F)cc1
  A = i; B = 1.1; C = 100; D = x; E = -27; F = 77; G = -5
2. Cc1ccc(-c2c3c(=O)n(C)c(=O)n(C)c3cn2Cc2cccnc2)cc1
  A = i; B = 1; C = 102; D = -0.1; E = x; F = x; G = 2
3. Cc1cccc(OCC(=O)Nc2ccc(S(=O)(=O)N3CCCC3)cc2)c1
  A = x; B = x; C = 99; D = -2.4; E = x; F = x; G = 11
4. COc1ccc(C/C(O)=C(\C#N)c2nc3ccccc3s2)cc1
  A = i; B = 0.86; C = 103; D = -2.1; E = -112; F = 109; G = -1
5. CCCCn1c(N)c(N(CC)C(=O)c2cccc(OC)c2)c(=O)[nH]c1=O
  A = i; B = 1; C = 99; D = x; E = 8; F = 135; G = 3
6. CC1=NNC(=O)C1C(c1cccc(O)c1)C(C#N)C#N (centres undefined)
  A = i; B = 1.1; C = 101; D = x; E = x; F = x; G = x
7. CCN(Cc1ccccc1)Cc1nc(CCc2ccccc2)no1
  A = i; B = 1; C = 104; D = x; E = x; F = x; G = -6
8. O=C(Cn1ncc2c1-c1ccccc1OC2)N(Cc1ccco1)C1CCCCC1
  A = i; B = 0.87; C = 102; D = -6.5; E = x; F = x; G = 12
9. CC1=C(C(=O)NCCN2CCOCC2)C2(CCC(C)CC2)OC1=O (centres undefined)
  A = i; B = 0.88; C = 103; D = -1.6; E = x; F = x; G = -15
10. Cc1ccc(N(CC(=O)NCCSCc2ccco2)S(=O)(=O)c2ccc(C)cc2)cc1
  A = i; B = 0.74; C = 104; D = -0.8; E = -7; F = 94; G = 3
11. CCc1nnc(NC(=O)c2ccc(N(C)S(=O)(=O)c3ccccc3)cc2)s1
  A = i; B = 1; C = 72; D = -2.2; E = x; F = x; G = -5
12. COC(=O)c1ccc(NC(=O)Nc2ccc(OC)c(OC)c2)cc1
  A = i; B = 0.96; C = 102; D = x; E = x; F = x; G = 0
13. O=C(COC(=O)C1=COCCO1)Nc1ccccc1Oc1ccccc1
  A = i; B = 0.93; C = 104; D = -0.3; E = -50; F = 134; G = -5
14. C/C(=N\OC(=O)NC1CCCCC1)c1sc(-c2ccccc2)nc1C
  A = i; B = 0.73; C = 97; D = -0.1; E = x; F = x; G = -3
15. Cc1ccc(S(=O)(=O)Nc2cc(C)nn2-c2ccccc2)cc1
  A = i; B = 0.83; C = 113; D = -2.6; E = 22; F = 90; G = 2

Continued (four carried over from the part before).
Keys – A = HSV replic up; B = HSV replic up primary fold; C = RGS16-Gao HTS; D = GALR2 ag; E = Insulin prom inh; F = Insulin prom inh cell count; G = PKD1 inh
12. COC(=O)c1ccc(NC(=O)Nc2ccc(OC)c(OC)c2)cc1
  A = i; B = 0.96; C = 102; D = x; E = x; F = x; G = 0
13. O=C(COC(=O)C1=COCCO1)Nc1ccccc1Oc1ccccc1
  A = i; B = 0.93; C = 104; D = -0.3; E = -50; F = 134; G = -5
14. C/C(=N\OC(=O)NC1CCCCC1)c1sc(-c2ccccc2)nc1C
  A = i; B = 0.73; C = 97; D = -0.1; E = x; F = x; G = -3
15. Cc1ccc(S(=O)(=O)Nc2cc(C)nn2-c2ccccc2)cc1
  A = i; B = 0.83; C = 113; D = -2.6; E = 22; F = 90; G = 2
16. CC(C)(C)C1CC=C2C(C#N)=C(N)C(C#N)(C#N)C(c3cccs3)C2C1 (centres undefined)
  A = i; B = 1; C = x; D = 1.4; E = -28; F = 116; G = 0
17. Cn1cccc1/C=C1\CCc2ccccc2C1=O
  A = i; B = 1.2; C = 97; D = x; E = -53; F = 81; G = 1
18. CCC(CO)N=CC1=C(O)CC(C)(C)CC1=O (centres undefined)
  A = i; B = 1; C = 103; D = -1.2; E = x; F = x; G = 0
19. Cc1cccc(NC(=S)NNC(=O)c2csc(C)c2)c1
  A = i; B = 0.99; C = 117; D = -0.9; E = 29; F = 68; G = 0
20. CCOC(=O)C1(CCCc2ccccc2)CCN(C(=O)Cc2nonc2C)CC1
  A = i; B = 0.96; C = 96; D = x; E = x; F = x; G = -9
21. CC1CC1C(=O)OCC(=O)NC(=O)NCc1ccco1 (centres undefined)
  A = i; B = 1; C = 102; D = -1.5; E = -22; F = 137; G = 1
22. O=C(Cc1cccs1)N(c1ccc(Br)cc1)C1C=CS(=O)(=O)C1 (centres undefined)
  A = i; B = 0.98; C = 103; D = x; E = -83; F = 136; G = 8
23. O=C(CN(Cc1ccc2c(c1)OCO2)C(=O)CSc1nc2ccccc2o1)NC1CCCCC1
  A = i; B = 1; C = 105; D = -4.0; E = -36; F = 153; G = 1
24. O=C(NNC(=O)c1cccc(S(=O)(=O)N2CCc3ccccc32)c1)c1ccccc1
  A = i; B = 0.59; C = 104; D = x; E = x; F = x; G = -2
25. CC1C/C(=N\NC(=O)c2cccnc2)CC(C)(C)C1 (centres undefined)
  A = i; B = 0.91; C = 102; D = x; E = 8; F = 120; G = 2
26. O=C(/C(=N/N=C/c1ccc(O)c(O)c1)c1ccccc1)c1ccccc1
  A = i; B = 1; C = 101; D = -0.1; E = -96; F = 101; G = 11
27. CCSc1nc(-c2ccco2)ccc1C#N
  A = i; B = 1; C = 103; D = -1.2; E = 50; F = 76; G = -4
28. O=C(N/N=C\c1ccccc1)c1sccc1-n1cccc1
  A = i; B = 0.94; C = 99; D = -1.9; E = 16; F = 126; G = -16
29. COc1ccc(NC(=O)CSc2ncnc3c2nnn3-c2ccc(F)cc2)c(OC)c1
  A = i; B = 0.84; C = 98; D = x; E = x; F = x; G = 1
30. CC1CC(C)CN(S(=O)(=O)c2ccc(C(=O)NCc3ccco3)cc2)C1 (centres undefined)
  A = i; B = 0.98; C = 97; D = x; E = x; F = x; G = 1
31. CCOC(=O)c1c(-c2ccc(C)cc2C)csc1NC(=O)CSc1nnnn1C
  A = i; B = 0.8; C = 102; D = -1.6; E = 42; F = 119; G = -3
32. COc1cc(NC(=O)c2ccc3c(=O)n(Cc4ccco4)c(=S)[nH]c3c2)cc(OC)c1OC
  A = i; B = 0.94; C = 65; D = -1.8; E = -4; F = 112; G = -14
33. NC(=O)c1ccc(NC(=O)COC(=O)C2(c3cccc(F)c3)CCCC2)cc1
  A = i; B = 1; C = 104; D = x; E = 25; F = 148; G = -4
34. COC(=O)CNS(=O)(=O)c1ccc(OC)cc1
  A = i; B = 0.86; C = 101; D = -1.3; E = -35; F = 60; G = 7
35. C=CCOc1c(Br)cc(/C=N/NC(N)=O)cc1OC
  A = i; B = 0.97; C = 93; D = -1.7; E = 25; F = 126; G = 4
36. O=c1[nH]c2cc3c(cc2cc1CN(Cc1ccco1)C(=S)NCC1CCCO1)OCCO3 (centres undefined)
  A = i; B = 1; C = 103; D = x; E = x; F = x; G = 0
37. O=C(CSc1nnc(CN2CCCCC2)n1-c1ccccc1)c1ccc2c(c1)OCO2
  A = i; B = 1.2; C = 108; D = -1.9; E = x; F = x; G = 4
38. COc1ccc(C2Nc3ccccc3C(=O)N2c2ccccc2)cc1Cn1cc([N+](=O)[O-])cn1 (centres undefined)
  A = i; B = 0.97; C = 98; D = 0.9; E = x; F = x; G = -3
39. CN1CCN(c2cc(N3CCc4ccccc4C3)c(F)cc2[N+](=O)[O-])CC1
  A = i; B = 0.55; C = 102; D = -0.3; E = 17; F = 80; G = 2
40. C#CCNC(=O)C1=C[C@@H](c2coc3ccccc3c2=O)C[C@@H](OCc2ccc(CO)cc2)O1
  A = i; B = 0.8; C = 101; D = x; E = x; F = x; G = 7
41. Cc1nc(/C=[N+](\[O-])C(C)(C)/C=N/O)n(O)c1C
  A = i; B = 0.93; C = 106; D = -2.3; E = 17; F = 153; G = -5
42. C/C(=C\c1ccccc1)CN1CCN(c2ccccc2)CC1
  A = i; B = 0.87; C = 101; D = -0.5; E = 5; F = 89; G = 0
43. COc1ccc(OC)c(/C=N/NC(=O)CSc2cc(C)nc3c(OC)cccc23)c1
  A = i; B = 0.92; C = 106; D = x; E = 27; F = 123; G = 0
44. COc1ccc(-c2cc(C(=O)OCC(=O)c3cccc([N+](=O)[O-])c3)c3cc(C)ccc3n2)cc1
  A = i; B = 0.93; C = 102; D = -0.2; E = 12; F = 164; G = -6
45. Cc1nn(C)cc1/C=N/NC(=O)Cn1nccc1C
  A = i; B = 1; C = 91; D = -1.3; E = -45; F = 35; G = -9
46. CC(O)CNCCCOc1cccc(C(F)(F)F)c1 (centres undefined)
  A = i; B = 1; C = 103; D = x; E = -471; F = 145; G = -4
47. COc1ccc(C(=O)c2ccc(N(C)C)cc2)c2ccccc12
  A = x; B = x; C = 88; D = -1.3; E = -173; F = 10; G = -8
48. COc1ccc(/C=N/NC(=O)c2cccnc2)cc1CSc1nc2ccccc2s1
  A = i; B = 0.88; C = 101; D = 1.0; E = x; F = x; G = 0
49. COC(=O)Nc1ccc(C)c2nsnc12
  A = x; B = x; C = 139; D = -1.2; E = x; F = x; G = -3
50. Cc1ccc(NC(=S)c2nc3ccccc3[nH]2)c(C)c1
  A = i; B = 0.93; C = 110; D = -1.6; E = 67; F = 155; G = -5
51. CC(C)CNC(=O)COC(=O)c1c2c(nc3ccccc13)/C(=C/c1cccs1)CC2
  A = i; B = 1.2; C = 60; D = 2.7; E = x; F = x; G = -2
52. Cn1cc(C(CC(=O)O)C(=O)O)c2ccccc21 (centres undefined)
  A = i; B = 0.91; C = 106; D = -2.3; E = 50; F = 62; G = -3
53. CCn1c(CNc2ccc(Cl)cc2)nnc1SCC#N
  A = i; B = 0.99; C = 102; D = x; E = x; F = x; G = 6
54. FC(F)C(F)(F)C1=CC(c2ccccc2)=NCCN1
  A = i; B = 0.84; C = 97; D = -2.0; E = 45; F = 124; G = -6
55. Cn1c(=O)c2[nH]c(SCc3ccccn3)nc2n(C)c1=S
  A = i; B = 1.1; C = 109; D = x; E = x; F = x; G = x
56. C/C(=N/NC(N)=S)c1cc2ccc(O)cc2oc1=O
  A = u; B = x; C = 91; D = x; E = x; F = x; G = x
57. O=C1CCCN2N=C(SCC(=O)N3N=C(c4ccc(Br)cc4)CC3c3ccc(F)cc3)SC2=N1 (centres undefined)
  A = i; B = 0.89; C = 6; D = x; E = -90; F = 35; G = -1
58. COc1ccc(C(=O)Cc2ccccc2)cc1OC
  A = i; B = 0.94; C = 113; D = -1.2; E = -38; F = 129; G = 10
59. O=c1cnnc(N/N=C/c2cccs2)[nH]1
  A = i; B = 1.1; C = 106; D = x; E = x; F = x; G = x
60. CCOc1ccc(-c2cc(C(=O)N3CCN(C)CC3)c3ccccc3n2)cc1
  A = i; B = 0.79; C = 95; D = -1.9; E = x; F = x; G = -2
61. COc1ccc(Br)cc1CN1CCCCCCC1
  A = i; B = 1.1; C = 120; D = -1.4; E = -395; F = 33; G = 13
62. O=C(CNc1ccccc1)N/N=C/c1ccc([N+](=O)[O-])cc1
  A = i; B = 0.92; C = 93; D = -0.9; E = -37; F = 105; G = 4
63. CCS(=O)(=O)N1CCN(c2c(Cl)cccc2[N+](=O)[O-])CC1
  A = i; B = 0.74; C = 116; D = -0.5; E = -6; F = 112; G = 12
64. COc1cc(OC)c(C(=O)OCC(=O)c2cc(C)n(CC3CCCO3)c2C)cc1OC (centres undefined)
  A = i; B = 0.99; C = 98; D = x; E = -25; F = 190; G = -1
65. Cc1ccc2nc(C)cc(N/N=C/c3cccnc3)c2c1
  A = i; B = 1; C = 96; D = x; E = 48; F = 115; G = -4
66. CCCCC[C@H](O)/C=C/[C@@H]1[C@@H](C/C=C\CCCC(=O)O)[C@@H](O)C[C@H]1O
  A = i; B = 0.79; C = 114; D = -0.9; E = -27; F = 88; G = 6
67. Cc1ccccc1CC(=O)N1CCCC(CCC(=O)N2CCN(c3ccccn3)CC2)C1 (centres undefined)
  A = i; B = 1.1; C = 37; D = x; E = x; F = x; G = -5
68. O=C(CCN1CCN(c2ccccc2)CC1)Nc1nccs1
  A = i; B = 1; C = 104; D = -1.0; E = -13; F = 96; G = -4
69. CCOC(=O)c1c(C)nc2sccn12
  A = i; B = 1.1; C = 93; D = -1.3; E = x; F = x; G = 1
